CtBP-E1A inh: qHTS Assay for Inhibitors of the CtBP/E1A Interaction; 340,000 tested, 0.49% active; AlphaScreen GST-E1A/His-CtBP binding, 1536-well; active compounds read low; control for the full effect not named in the record; AID 651724, 2012; activity change, % (no concentration beside the values); in the data active means activity change below about -65%; inconclusive means about -30% to -65%; inactive means above about -30%; further: on the % scale 0 is the no-effect control and ±100 the full control effect
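Steps: dispense buffer (Tris pH 8.0, NaCl 300 mM, TCEP 1 mM, BSA, Tween 20); add 5X protein mix (GST-E1A, His-CtBP, 125 nM each); pin 23 nL compound; 2 h at 37 °C, dark; add 5X beads (50 ug/mL); 1 h; read.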
PINK1 expr mod: A Quantitative High throughput Screen to Identify Chemical Modulators of PINK1 Expression | PINK1 immunofluorescence, high-content cytometry, 24 h | 410,000 tested, 0.2% active | Potency, µM (top dose mostly 76.6 µM), for inactives: top-dose activation (PINK1 increase), hits mostly activators; active = well fitted activation curve with a large enough effect; inconclusive = small, poorly fitted or top-dose-only effect; inactive = flat fitted curve, though single readings scatter; cell line not stated here;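 further: potency means the concentration at half of the fitted maximal effect; % of control where 0% means no effect; nearly all actives have a fitted effect of over 65% in size; a mitochondrial uncoupler was the plate control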
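Stable cell line, 250 cells/well, 12 h attachment; compounds pinned at 5 concentrations, 24 h; CCCP control. Fixed with nuclear dye, primary antibodies 12 h at 10 degrees C, secondary plus cell stain; laser-scanning cytometer read.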
TRPML1 blocker: qHTS for Inhibitors of the Human Mucolipin Transient Receptor Potential 1 (TRPML1). activity change, negative = inhibition, % (test concentration not listed). 390,000 tested, 0.02% active. AID 624415, 2012. Mucolipin-1 (Homo sapiens), Q9GZU1. TRPML1-inducible cells, Ca2+ dye fluorescence, FDSS; active compounds read low; inhibition of EC80 agonist-evoked calcium signal; in the data active means activity change below about -50%; inconclusive means about -30% to -50%; inactive means above about -30%;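 further: stimulus is agonist 54-4 at its EC80 concentration; on the % scale 0 is the no-effect control and ±100 the full control effect; compound concentration not given in the record; the text of the record puts the active cut at -80%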
Target sequence (Q9GZU1 whole entry, looked up): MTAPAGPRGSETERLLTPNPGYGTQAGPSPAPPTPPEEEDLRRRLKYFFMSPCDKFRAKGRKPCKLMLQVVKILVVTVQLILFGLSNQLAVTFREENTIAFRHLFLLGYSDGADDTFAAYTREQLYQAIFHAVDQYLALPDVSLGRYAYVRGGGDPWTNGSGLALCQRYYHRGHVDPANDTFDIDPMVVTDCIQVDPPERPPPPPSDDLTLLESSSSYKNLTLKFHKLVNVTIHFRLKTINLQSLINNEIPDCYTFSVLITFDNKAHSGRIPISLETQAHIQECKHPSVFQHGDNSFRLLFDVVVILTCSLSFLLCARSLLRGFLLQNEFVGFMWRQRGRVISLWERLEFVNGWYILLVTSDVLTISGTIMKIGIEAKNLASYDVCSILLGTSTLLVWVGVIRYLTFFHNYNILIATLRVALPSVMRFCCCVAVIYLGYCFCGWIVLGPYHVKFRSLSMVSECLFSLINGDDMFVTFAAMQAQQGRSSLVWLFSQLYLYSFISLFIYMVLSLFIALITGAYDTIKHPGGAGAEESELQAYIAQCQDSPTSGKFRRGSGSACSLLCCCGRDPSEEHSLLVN
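Calcium fluorescence in TRPML1-DL cells induced overnight with Tet: a 110 s read after compound pin addition, then a 110 s antagonist read after challenge with 54-4 at 4 uM final (EC80).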
D2 agonist: Beta-Arrestin HTS for Positive Allosteric Modulators of the Human D2 Dopamine Receptor: Agonists; D(2) dopamine receptor (Homo sapiens), P14416; DiscoveRx PathHunter D2 beta-arrestin, luminescence, 90 min; 100% = 57 uM dopamine signal; activation, % (no concentration beside the values); 360,000 tested, 0.084% active; AID 624465, 2012; in the data active = activation above about 40%; inconclusive = about 15% to 40%; inactive = below about 15%; further: compound concentration not given in the record; the text of the record calls up to 30% inactive
Target sequence (P14416 whole entry, looked up): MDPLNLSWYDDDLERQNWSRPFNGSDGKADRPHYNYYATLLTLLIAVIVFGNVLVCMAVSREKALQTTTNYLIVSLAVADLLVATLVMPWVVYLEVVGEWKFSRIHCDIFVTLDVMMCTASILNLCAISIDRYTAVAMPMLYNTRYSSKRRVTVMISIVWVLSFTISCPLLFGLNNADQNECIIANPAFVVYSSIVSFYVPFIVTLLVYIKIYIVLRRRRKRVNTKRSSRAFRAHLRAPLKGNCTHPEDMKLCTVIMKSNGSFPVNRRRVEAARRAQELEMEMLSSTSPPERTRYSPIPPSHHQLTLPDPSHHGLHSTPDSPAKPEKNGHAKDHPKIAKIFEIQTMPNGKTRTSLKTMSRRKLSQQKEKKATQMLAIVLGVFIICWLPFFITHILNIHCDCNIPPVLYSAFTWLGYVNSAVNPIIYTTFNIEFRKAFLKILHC
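DiscoveRx PathHunter D2 beta-arrestin cells (2,100/well) attached overnight, then compound-stimulated 90 min at 37 C in HBSS/10 mM HEPES/0.1% Tween-20 buffer; beta-galactosidase complementation read by luminescence after 1 h at ambient temperature. Dopamine 57 uM final (EC100) as control.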
Six1-Eya2 inh: qHTS Assay for Inhibitors of the Six1/Eya2 Interaction | AlphaScreen GST-Six1/His-Eya2 binding, biochemical; active compounds read low; control for the full effect not named in the record | AID 651725, 2012 | Homeobox protein SIX1 (Homo sapiens) + Protein phosphatase EYA2 (Homo sapiens), … | 360,000 tested, 0.56% active | activity change, % (no concentration beside the values); in the data active = activity change below about -65%; inconclusive = about -30% to -65%; inactive = above about -30%; further: on the % scale 0 is the no-effect control and ±100 the full control effect
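AlphaScreen with GST-Six1 and His-Eya2 (5X mix: 250 nM and 500 nM), glutathione donor and nickel acceptor beads; buffer 50 mM Tris pH 8.0, 300 mM NaCl, 1 mM TCEP; 1 h at 37 C in the dark.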
TRPML1 agonist: qHTS for Agonists of the Human Mucolipin Transient Receptor Potential 1 (TRPML1); TRPML1-expressing cells, Ca2+ dye fluorescence, FDSS; host cell line not named in the record; reference of the full effect not given here; activation, % (concentration not given with the values); 410,000 tested, 0.12% active; in the data active = activation above about 50%; inconclusive = about 30% to 50%; inactive = below about 30%; further: 0% is about no effect; the text of the record puts the active cut at 80%
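Calcium fluorescence on an FDSS kinetic reader gave the read-out. Tet-induced TRPML1-DL cells were plated overnight, dye-loaded (Ca8 with quencher, 45-90 min, room temperature, dark), then read 110 s after compound addition, and again 110 s after 4uM final 54-4 (EC80).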
An asterisk follows results filed as active; ? = inconclusive; nt = not tested or not shown; & = joins results of further samples; [ ] = dose if it differs, or a comment.

SMILES	CtBP-E1A inh	PINK1 expr mod	TRPML1 blocker	D2 agonist	Six1-Eya2 inh	TRPML1 agonist
CCOc1ccccc1CNC(=O)c1ccc2c(c1)nc1n2CCCCC1	nt	1.4%	6	nt	nt	-0.4
CCOc1cc(/C=N\NC(=O)Cn2nc([N+](=O)[O-])cc2C)ccc1OCc1cccc2ccccc12	0	9.6%	13	-3.6	-3	-0.1
S=C(NCc1ccc(Cl)cc1)NC12CC3CC(CC(C3)C1)C2	-22	?	22	0.5	-17	1.0
O=C(OCC(=O)c1cccs1)c1cccc(C(=O)OCC(=O)c2cccs2)n1	9	nt	9	-0.2	-11	0.0
O=C(N/N=C/c1cccc(O)c1)c1ccc(NC(=O)c2cccc([N+](=O)[O-])c2)cc1	nt	2.6%	22	7.7	-3	1.6
O=C(Nc1cccc(C(F)(F)F)c1)Nc1ccc(N2CCCC2)c(S(=O)(=O)Nc2ccccc2Cl)c1	-18	?	47	6.6	-20	0.4
CCOC(=O)C1CCN(C(=O)c2cc3cc4ccc(C)cc4nc3o2)CC1	4	-0.1%	2	1.0	10	-1.1
Cc1cccc(OCc2n[nH]c(=S)o2)c1C	nt	1.0%	-9	-6.3	-3	0.7
Oc1ccc(-c2cccc(-c3ccc(O)cc3)c2)cc1	5	1.7%	16	6.7	-2	0.2
COc1cc(C(=O)NNc2nc3cc4c(cc3s2)OCO4)cc(OC)c1OC	-3	6.3%	8	4.6	-1	-0.2

Pulled by structure from the entries so far, 2 records:
SMILES	CtBP-E1A inh	PINK1 expr mod	TRPML1 blocker	D2 agonist	Six1-Eya2 inh	TRPML1 agonist
COc1cc(C(=O)NNc2nc3cc4c(cc3s2)OCO4)cc(OC)c1OC	-3	6.3%	8	4.6	-1	-0.2
O=C(Nc1cccc(C(F)(F)F)c1)Nc1ccc(N2CCCC2)c(S(=O)(=O)Nc2ccccc2Cl)c1	-18	?	47	6.6	-20	0.4

Results in PINK1 expr mod, Six1-Eya2 inh and D2 agonist, for four of the compounds above:
mol	PINK1 expr mod	Six1-Eya2 inh	D2 agonist
O=C(Nc1cccc(C(F)(F)F)c1)Nc1ccc(N2CCCC2)c(S(=O)(=O)Nc2ccccc2Cl)c1	?	-20	6.6
CCOC(=O)C1CCN(C(=O)c2cc3cc4ccc(C)cc4nc3o2)CC1	-0.1%	10	1.0
Cc1cccc(OCc2n[nH]c(=S)o2)c1C	1.0%	-3	-6.3
Oc1ccc(-c2cccc(-c3ccc(O)cc3)c2)cc1	1.7%	-2	6.7

The main list resumes; the two compounds before the break are reprinted first.
SMILES	CtBP-E1A inh	PINK1 expr mod	TRPML1 blocker	D2 agonist	Six1-Eya2 inh	TRPML1 agonist
Oc1ccc(-c2cccc(-c3ccc(O)cc3)c2)cc1	5	1.7%	16	6.7	-2	0.2
COc1cc(C(=O)NNc2nc3cc4c(cc3s2)OCO4)cc(OC)c1OC	-3	6.3%	8	4.6	-1	-0.2
CCOc1ccc(-n2cc(C(=O)Nc3ccc(Cl)cn3)c3cc(OC)c(OC)cc3c2=O)cc1	12	21%	-5	-1.9	0	-0.6
CCc1ccccc1NCc1nnc2n1CCCCC2	nt	2.3%	0	nt	nt	1.2
COc1ccc(C(=O)NNC2CC(=O)N(Cc3ccccc3)C2=O)cc1OC (stereo not drawn)	-18	1.6%	-3	0.4	0	1.8
Cc1ccc2c(NC(=O)C3CC3)cccc2n1	2	-1.7%	?	-1.2	1	0.0
Cc1oc(-c2ccc3ccccc3c2)nc1CN(C)C(C)c1ccncn1 (stereo not drawn)	-10	0.0%	1	-1.9	-1	-0.7
CCOC(=O)c1cc(CC)sc1NC(=O)c1cc(OCC)c(OCC)c(OCC)c1	-1	23%[38.3 µM]	30	-1.3	-8	-0.4
O=C(N/N=C/CCc1ccccc1)c1ccccc1	1	1.2%	-1	-4.4	-1	0.4
COc1ccc(CCNC(=O)Nc2nnc([C@@H]3C[C@H](O)[C@@H](CO)O3)s2)cc1OC	1	1.3%	nt	-3.2	4	-0.7
CC(C)(C)c1ccc(Oc2nc3ccccn3c(=O)c2/C=C(\C#N)c2nc3ccccc3s2)cc1	nt	7.9%	0	nt	nt	0.1
O=c1[nH][nH]c2c1[C@H](c1ccccc1)O[C@H](C1CCCCC1)C2	7	1.7%	nt	nt	-3	-0.5
CCOC(=O)CN(C(=O)CSc1nnc(CNc2ccc(F)cc2)n1CC)c1ccc(F)cc1	-4	-2.1%	-1	-2.0	-14	3.5
Cc1cc(C)nc(SCc2ccccc2C#N)n1	3	1.7%	1	-3.7	8	-0.6
Cc1ccc(N(CC(O)CN2CCOCC2)S(=O)(=O)c2ccc3ccccc3c2)cc1 (stereo not drawn)	-5	-1.9%	-6	-1.8	-8	8.2
CCN(CC)S(=O)(=O)c1cccc(C(=O)N/N=C/c2ccc(OC)c(O)c2)c1	-5	4.4%	12	-1.5	-7	-0.4
CC(C)c1[nH]nc2c1C(C1C=CCCC1)C(C#N)=C(N)O2 (stereo not drawn)	nt	2.6%	3	0.4	-1	-1.0
N/C(=N\c1nc2ccccc2o1)NC(=O)c1ccc(Cl)cc1	1	8.5%	37	-2.5	4	3.9
Cc1onc(-c2ccccc2Cl)c1C(=O)N1CCCCC1C (stereo not drawn)	-10	-2.6%	-23	-4.4	25	0.7
CCOc1ccc(-n2c(-c3ccccc3)nnc2-c2ccccc2)cc1	-3	-1.5%	2	-0.6	7	0.4
O=C(Nc1ccc(C(=O)OCc2cc(=O)n3c4c(sc3n2)CCCC4)cc1)c1cccc(F)c1	nt	-1.0%	3	nt	nt	0.6
S=C1NCCOCCNC(=S)NCCOCCOCCOCCN1	4	-0.6%	3	0.8	3	0.9
Cc1ccccc1NC(=O)CCN1CCN(CCO)CC1	12	-0.9%	3	0.6	10	-0.7
Cc1ccc2ccc(S(=O)(=O)n3nc(C)cc3C)cc2c1	-3	6.2%[38.3 µM]	24	-0.3	0	3.2
CCOC(=O)c1ccc(NC(=O)c2ncn3c2C(=O)N[C@H](C)C3)cc1	-4	0.5%	-5	-9.2	0	-0.6
CCC(Sc1nnnn1C)C(=O)Nc1ccc(C(C)=O)cc1 (stereo not drawn)	-3	-1.1%	0	-3.9	-1	-0.2
CC(NC(=S)NCCCN1CCOCC1)C1CC2CCC1C2 (stereo not drawn)	3	1.8%	-13	-2.6	11	0.4
NC(=O)CC(NC(=O)c1ccccc1)c1ccc(NCCN2CCCCC2)c([N+](=O)[O-])c1 (stereo not drawn)	7	2.4%	5	0.3	2	-0.6
S=C(NCCc1ccccc1)N1CCn2cccc2C1c1cccnc1 (stereo not drawn)	-4	1.0%	-12	-3.5	-7	-0.3
CCOc1ccccc1NC(=O)CCCNC(=O)c1ccc(Cl)cc1	-17	-0.4%	15	-2.7	-6	-0.4
O=C(NCCCN1CCN(c2ccccc2)CC1)c1ccc2nc(CCc3ccccc3)oc2c1	nt	7.2%	-12	nt	nt	0.9
Clc1cccc(CN2CCCCCC2)c1	nt	0.9%	12	-1.5	0	-0.1
Cc1c(C(=O)N2CCN(C)CC2)oc2c1C(=O)CC(C)(C)C2	6	?	7	-0.6	1	0.0
CCOC(=O)CSc1nc2c(c(=O)[nH]c(=O)n2C)n1CCCc1ccccc1	51	2.1%[38.3 µM]	-6	-3.0	0	0.5
CSc1nc2c(c(=O)[nH]c(=O)n2C)n1Cc1ccc(Cl)cc1	4	2.9%	-8	-1.1	1	0.1
O=C(Nc1cc(Cl)cc(Cl)c1)c1ccc2c(c1)N(Cc1cccc(Cl)c1)C(=O)c1ccccc1S2=O (stereo not drawn)	nt	-0.4%	16	nt	nt	0.2
O=C(NCc1ccc2c(c1)OCO2)c1ccc2c(c1)N(Cc1c(F)cccc1Cl)C(=O)c1ccccc1S2	nt	0.3%	-11	nt	nt	1.0
CC(=O)c1ccc(NC(=O)C2CCCN(S(=O)(=O)c3ccc4c(c3)CCCN4C(C)=O)C2)cc1 (stereo not drawn)	nt	-0.4%	-13	nt	nt	0.2
CCNC(=O)CN(CCc1ccccc1)S(=O)(=O)c1ccc(OC)cc1	0	-2.9%	-14	2.1	7	-1.4
CCC1S/C(=N/N=C/c2ccco2)N(c2ccc(F)cc2)C1=O (stereo not drawn)	7	8.7%	6	-4.5	1	0.0
Cc1ccc(NC(=O)Cn2c(=O)n(Cc3nc(-c4ccccc4)no3)c(=O)c3ccccc32)c(C)c1	nt	0.6%	-3	nt	nt	0.3
O=C(C1CCCN(S(=O)(=O)c2cccc3nonc23)C1)N1CCN(c2cccc(C(F)(F)F)c2)CC1 (stereo not drawn)	nt	2.0%	-8	nt	nt	0.4
COc1ccc(C(=O)N(Cc2cccs2)C2CCS(=O)(=O)C2)cc1 (stereo not drawn)	3	2.5%	-8	-6.2	0	-0.4
COc1ccc(C=O)cc1Cn1ccnc1C	-9	1.0%	22	2.5	10	-0.3
CC(=O)N1CCN(C(=O)c2cc(S(=O)(=O)NCc3ccccc3)ccc2C)CC1	0	-0.1%	9	2.8	3	0.3
Cc1nc(C(=O)NCc2ccccc2)sc1C1(C)CC(c2ccccc2)=NO1 (stereo not drawn)	4	-1.4%	21	-4.0	1	0.5
Cc1c(C(=O)Nc2ccccc2F)sc2ncn(CC(=O)N3CCCCC3)c(=O)c12	6	-0.4%	-8	0.0	1	-0.3
CCOc1ccc(CCNC(=O)c2ccc3nc(CC)c(CC)nc3c2)cc1	-12	1.1%&2.0%	?	10	5	2.7&0.4
O=C(O)Cc1sc(-c2ccccc2)nc1-c1cccs1	44	-1.1%	5	-4.9	7	-0.5
C=CCn1c(NC)cc(=O)n(C)c1=O	1	6.3%	12	-0.9	4	-0.4
CCOc1ccc(CNS(=O)(=O)c2c(C(=O)N3CCC(C)CC3)c(C)n(C)c2C)cc1OC	nt	-1.1%	-2	nt	nt	0.9
CCCCN(CC)CCNC(=O)c1cn(-c2ccc(Cl)cc2)c(=O)c2ccccc12	-4	0.1%	15	-3.6	0	-0.2
The listing continues:
SMILES	CtBP-E1A inh	PINK1 expr mod	TRPML1 blocker	D2 agonist	Six1-Eya2 inh	TRPML1 agonist
O=C(NCCOc1ccccc1F)c1cc(F)c(F)cc1Cl	-3	1.2%	-15	-2.5	4	0.7
CCN1CCN(S(=O)(=O)c2ccc(Cl)c(C(=O)N(CCc3ccccc3)Cc3ccccc3)c2)CC1	nt	4.5%	2	-4.6	-15	?
NNC(=O)CN1C(=O)Nc2ccc(Cl)cc2C1c1ccccc1 (stereo not drawn)	-3	2.0%	nt	-12	-13	nt
Cc1ccc(SC[C@H](Cc2ccccc2)N2CCN(CCc3ccccc3)CCC2=O)cc1	-23	?	62	-2.4	-9	2.9

Compounds were not picked by outcome, and some 1% of all compounds hit somewhere here.
